Source: PubChem
AF4-AF9 inh: inhibitors of human MLL-AF4/AF9 interaction | P42568 | AlphaScreen, biotin-AF4 peptide binding to FLAG-AF9 | inhibition, % at 10 µM | 0.47% of 350,000 active;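 active = every replicate reaching a set inhibition limit, whatever the replicate mean, cut at about 25% in these data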;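 note: 0% = plate neutral control median and 100% = total signal loss; the record names both 10 and 1 µM as test concentration; the first replicate is given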
Target sequence (P42568 whole entry, looked up): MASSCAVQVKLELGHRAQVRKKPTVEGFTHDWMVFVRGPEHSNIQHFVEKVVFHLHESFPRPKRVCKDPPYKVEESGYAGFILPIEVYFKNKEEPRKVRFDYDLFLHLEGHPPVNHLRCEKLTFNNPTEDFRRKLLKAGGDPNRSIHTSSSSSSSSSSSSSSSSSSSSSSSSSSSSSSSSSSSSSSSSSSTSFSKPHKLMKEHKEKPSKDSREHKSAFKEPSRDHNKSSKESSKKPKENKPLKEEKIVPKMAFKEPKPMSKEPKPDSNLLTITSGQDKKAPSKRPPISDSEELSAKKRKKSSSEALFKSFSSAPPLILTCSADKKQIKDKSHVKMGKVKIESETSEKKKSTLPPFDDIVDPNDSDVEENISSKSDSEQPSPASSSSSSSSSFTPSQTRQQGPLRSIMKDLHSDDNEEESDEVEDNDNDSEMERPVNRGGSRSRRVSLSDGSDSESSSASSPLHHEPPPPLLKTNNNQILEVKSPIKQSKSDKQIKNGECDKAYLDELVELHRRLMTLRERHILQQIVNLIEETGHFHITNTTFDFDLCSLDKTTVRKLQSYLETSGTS
Ecoli rRNA inh: inhibitors of bacterial rRNA selective over humanized ribosomes | GFP signal change (wild-type ribosome), % (concentration not given with the values) | 1.6% of 350,000 active | E. coli WT GFP vs humanized-ribosome RFP mutants, fluorescence, 24 h; stronger effect = lower value; DMSO median 0, no signal -100 | AID 720706;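 active = significant combined selectivity score with lowered wild-type GFP, culture density cut under 30%, mutant RFP and density less affected; inactive = any of these conditions unmet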; note: one replicate is shown; some compounds called inactive have numbers as strong as hits
FGF22 binding: binders of recombinant human FGF22 by thermal shift. 1.5% of 340,000 active. AID 651658. calls only at 9.99 µM. Q9HCT0. SYPRO orange fluorescence; percent of sucrose octasulfate shift, DMSO zero;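 active = melting point raised past a set limit in the mean and every replicate; three in four hits are not shown here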
Target sequence (Q9HCT0 whole entry, looked up): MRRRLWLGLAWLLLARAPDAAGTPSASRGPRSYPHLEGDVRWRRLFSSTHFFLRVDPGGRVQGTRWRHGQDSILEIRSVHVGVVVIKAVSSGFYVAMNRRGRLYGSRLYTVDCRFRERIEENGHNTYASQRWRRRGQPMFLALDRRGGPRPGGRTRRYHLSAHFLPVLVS
Ecoli rRNA inh OD600: second read-out of Ecoli rRNA inh, no call of its own (marks repeat the call); OD600 change, %; measured here: OD600 growth;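 optical density of the mix in the first replicate; 0 = DMSO median and -100 = no signal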
Ecoli rRNA inh RFP: also measured in Ecoli rRNA inh; calls as there; RFP signal change, %; measured here: RFP humanized mutant strains;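 first replicate; 0 = DMSO median and -100 = no signal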
Active calls of the source: *; i = inactive. This is a subset. The share of hits here may be higher or lower than overall.

SMILES	AF4-AF9 inh	Ecoli rRNA inh	Ecoli rRNA inh OD600	Ecoli rRNA inh RFP	FGF22 binding
N#C[C@H]1[C@H](c2ccccc2C2=CCCCC2)[C@@H](CO)N1C(=O)C1CCOCC1	-0.2	-3	-4	-5.2	i
COCC(=O)N(C)C[C@H]1Oc2ncc(-c3cccc(OC)c3)cc2C(=O)N([C@H](C)CO)C[C@@H]1C	0.2	3	8	-2.0	i
COc1ccccc1NC(=O)N[C@H]1CC[C@@H](CCNC(=O)Cc2ccccn2)O[C@@H]1CO	-1.0	-2	1	-1.7	i
C[C@@H]1CN([C@@H](C)CO)C(=O)c2cc(NC(=O)Nc3cccc4ccccc34)ccc2O[C@H]1CN(C)C(=O)Nc1cccc2ccccc12	-1.0	2	6	-2.3	i
COCC(=O)N1CC(=O)N2[C@H](C1)[C@H](c1ccc(C#CCc3ccccc3)cc1)[C@@H]2CO	0.4	-2	0	4.2	i
COc1ccc(NC(=O)N[C@H]2CC[C@@H](CCNC(=O)c3cc(Cl)cc(Cl)c3)O[C@H]2CO)cc1	6.8	-6	-20	6.2	i
COc1ccc(CN(C)C[C@H]2Oc3ccc(NC(=O)Nc4cccc5ccccc45)cc3CC(=O)N([C@@H](C)CO)C[C@H]2C)cc1	0.8	0	-11	8.1	i
COc1cc(=O)oc(C=O)c1C	-2.9	10	12	-3.9	i
Cc1noc(C)c1NC(=O)N(C)C[C@H]1Oc2c(NC(=O)c3nc4ccccc4s3)cccc2C(=O)N([C@H](C)CO)C[C@@H]1C	-0.7	-3	-12	3.0	i
Cc1ccc(S(=O)(=O)N(C)C[C@@H]2Oc3cc(C#Cc4ccncc4)ccc3S(=O)(=O)N([C@@H](C)CO)C[C@@H]2C)cc1	0.2	0	2	13	i
C[C@@H]1CN([C@@H](C)CO)C(=O)c2cc(NS(=O)(=O)c3ccc(Cl)cc3)ccc2O[C@@H](C)CCCCO[C@H]1CN(C)C(=O)c1ccncc1	-5.0	-1	-3	-0.4	i
Cc1noc(C)c1S(=O)(=O)N(C)C[C@H]1Oc2ccc(NC(=O)CCCCCC(=O)Nc3ccccc3N)cc2CC(=O)N([C@@H](C)CO)C[C@@H]1C	-1.2	4	11	-0.2	i
C[C@H](CO)N1C[C@H](C)[C@@H](CN(C)C(=O)Nc2cccc3ccccc23)OCCCC[C@H](C)Oc2ccc(NC(=O)Nc3ccc(F)cc3)cc2C1=O	-2.0	0	8	1.2	i
C[C@H](CO)N1C[C@H](C)[C@H](CN(C)Cc2ccc3c(c2)OCO3)OCCCC[C@H](C)Oc2ccc(NC(=O)c3ccccc3)cc2C1=O	4.4	-2	-6	3.8	i
C[C@H](CO)N1C[C@H](C)[C@@H](CN(C)C(=O)Nc2ccccc2)Oc2c(NC(=O)C3CCOCC3)cccc2C1=O	-1.9	3	10	-0.5	i
C[C@H]1CN([C@@H](C)CO)C(=O)c2cccc(NS(=O)(=O)c3cccs3)c2O[C@@H]1CN(C)S(=O)(=O)c1cn(C)cn1	-4.1	1	-13	3.6	i
O=C(C[C@@H]1C=C[C@H](NC(=O)NC2CCCC2)[C@@H](CO)O1)NCc1ccc(F)cc1	-1.6	3	9	-4.2	i
C[C@H]1CN([C@@H](C)CO)C(=O)c2cc(NC(=O)NC3CCCCC3)ccc2O[C@@H]1CN(C)Cc1ccccc1	1.6	0	4	-1.0	i
CC(C)[C@@H](C)NC(=O)N(C)C[C@H]1OCc2ccccc2-c2c(n(C)c3ccccc23)C(=O)N([C@@H](C)CO)C[C@H]1C	-2.0	-4	-4	1.7	i
C[C@@H]1CN([C@H](C)CO)C(=O)c2cccc(NC(=O)c3nc4ccccc4s3)c2O[C@H]1CN(C)S(=O)(=O)c1cn(C)cn1	-4.0	-1	0	0.4	i
O=C(C[C@H]1CC[C@@H]2[C@H](COC[C@H](O)CN2C(=O)Nc2ccc(F)cc2)O1)NC1CCC1	-1.3	-3	-1	-4.1	i
Cc1ccc(S(=O)(=O)N[C@@H]2C=C[C@H](CC(=O)N3CCc4ccccc4C3)O[C@H]2CO)cc1	-3.8	-4	-14	-2.7	i
C[C@@H]1CN([C@H](C)CO)C(=O)Cc2cc(NC(=O)Nc3cccc4ccccc34)ccc2O[C@H]1CN(C)S(=O)(=O)c1ccccc1	-9.4	0	-2	-1.5	i
CN(C)CC(=O)N[C@H]1C=C[C@H](CC(=O)NCc2ccc(Cl)cc2)O[C@@H]1CO	-1.1	6	15	0.4	i
CCOC(=O)[C@@H]1CSCCS(=O)(=O)N1C(=O)[C@H](C)NC(=O)OC(C)(C)C	-0.8	6	3	5.2	i

A different layout for some results above:
structure | AF4-AF9 inh | Ecoli rRNA inh | Ecoli rRNA inh OD600 | Ecoli rRNA inh RFP | FGF22 binding
C[C@H]1CN([C@@H](C)CO)C(=O)c2cccc(NS(=O)(=O)c3cccs3)c2O[C@@H]1CN(C)S(=O)(=O)c1cn(C)cn1 | -4.1 | 1 | -13 | 3.6 | i
O=C(C[C@@H]1C=C[C@H](NC(=O)NC2CCCC2)[C@@H](CO)O1)NCc1ccc(F)cc1 | -1.6 | 3 | 9 | -4.2 | i
C[C@H]1CN([C@@H](C)CO)C(=O)c2cc(NC(=O)NC3CCCCC3)ccc2O[C@@H]1CN(C)Cc1ccccc1 | 1.6 | 0 | 4 | -1.0 | i
CC(C)[C@@H](C)NC(=O)N(C)C[C@H]1OCc2ccccc2-c2c(n(C)c3ccccc23)C(=O)N([C@@H](C)CO)C[C@H]1C | -2.0 | -4 | -4 | 1.7 | i
C[C@@H]1CN([C@H](C)CO)C(=O)c2cccc(NC(=O)c3nc4ccccc4s3)c2O[C@H]1CN(C)S(=O)(=O)c1cn(C)cn1 | -4.0 | -1 | 0 | 0.4 | i
O=C(C[C@H]1CC[C@@H]2[C@H](COC[C@H](O)CN2C(=O)Nc2ccc(F)cc2)O1)NC1CCC1 | -1.3 | -3 | -1 | -4.1 | i
Cc1ccc(S(=O)(=O)N[C@@H]2C=C[C@H](CC(=O)N3CCc4ccccc4C3)O[C@H]2CO)cc1 | -3.8 | -4 | -14 | -2.7 | i
C[C@@H]1CN([C@H](C)CO)C(=O)Cc2cc(NC(=O)Nc3cccc4ccccc34)ccc2O[C@H]1CN(C)S(=O)(=O)c1ccccc1 | -9.4 | 0 | -2 | -1.5 | i
CN(C)CC(=O)N[C@H]1C=C[C@H](CC(=O)NCc2ccc(Cl)cc2)O[C@@H]1CO | -1.1 | 6 | 15 | 0.4 | i
CCOC(=O)[C@@H]1CSCCS(=O)(=O)N1C(=O)[C@H](C)NC(=O)OC(C)(C)C | -0.8 | 6 | 3 | 5.2 | i

Later entries.
SMILES	AF4-AF9 inh	Ecoli rRNA inh	Ecoli rRNA inh OD600	Ecoli rRNA inh RFP	FGF22 binding
CC(C)c1ccc(NC(=O)Nc2nc(C(N)c3ccccc3Cl)cs2)cc1 (centres undefined)	5.4	-61	-81	-18	i
NC(c1csc(Nc2nncc3ccccc23)n1)c1ccccc1Cl (centres undefined)	4.2	-51	-64	-17	i
CCNC(=O)[C@H]1[C@H](CO)[C@H]2Cn3c(ccc(-c4ccncc4)c3=O)[C@H]2N1Cc1ccccc1	-13	3	1	0.7	i
C[C@@H]1CN([C@H](C)CO)C(=O)c2cc(-c3cccc(F)c3)cnc2O[C@@H]1CN(C)Cc1ccncc1	-4.2	0	9	-4.3	i
Cc1ccccc1S(=O)(=O)N1C[C@@H](O)COC[C@H]2O[C@@H](CC(=O)N3CCC(Cc4ccccc4)CC3)CC[C@@H]21	4.3	-9	-44	4.6	i
C[C@@H]1CN([C@@H](C)CO)C(=O)c2cc(NC(=O)CCN3CCOCC3)ccc2O[C@@H]1CN(C)S(C)(=O)=O	-0.9	2	2	-1.1	i
CCCNC(=O)C1(C)CCN(C(=O)c2oc3ccccc3c2C)C1 (centres undefined)	-4.1	-3	-15	1.5	i
COc1ccc(NC(=O)N[C@H]2CC[C@@H](CC(=O)NCc3ccccn3)O[C@@H]2CO)cc1	1.0	2	4	-3.8	i
CO[C@@H]1CN(C)C(=O)c2ccc(NC(=O)c3ccno3)cc2OC[C@@H](C)N(S(C)(=O)=O)C[C@@H]1C	-7.8	1	17	0.1	i
C[C@@H]1CN([C@H](C)CO)C(=O)Cc2cc(NC(=O)Nc3ccc(F)cc3)ccc2O[C@H]1CN(C)C(=O)Nc1ccc(F)cc1	-2.3	1	-9	1.5	i
O=C(Nc1ccccc1)C1Cc2c(-c3ccc(Cl)cc3)ccnc2O1 (centres undefined)	0.0	-4	-2	-1.2	i
O=C(Cc1cccnc1)N1CC(=O)N2[C@H](C1)[C@H](c1ccc(/C=C/c3ccccc3)cc1)[C@@H]2CO	20	3	3	2.6	i
COc1ccc(OC)c(NC(=O)Nc2nnc([C@@H]3O[C@H](CO)[C@@H](O)[C@H]3O)s2)c1	-4.8	6	13	-3.7	i
C[C@H](CO)N1C[C@H](C)[C@@H](CN(C)C(=O)NC2CCCC2)Oc2ncc(-c3cccnc3)cc2C1=O	-12	4	-1	-2.5	i
COc1ccc(-c2cnc3c(c2)C(=O)N([C@H](C)CO)C[C@@H](C)[C@@H](CN(C)C)O3)cc1	-15	4	9	-2.9	i
Cc1cccc(C)c1NC(=O)C(c1ccncc1)n1c(=O)c(-c2ccco2)nc2ccccc21 (centres undefined)	5.8	7	15	0.7	i
Cc1ccc(-c2nc3c(Cl)cc(C(F)(F)F)cn3c2Cc2ccccc2C(F)(F)F)cc1	-3.0	-1	0	-1.3	i
C[C@H](CO)N1C[C@H](C)[C@@H](CN(C)C(=O)Nc2ccc(F)cc2)Oc2c(NC(=O)c3ccc(-c4nccs4)cc3)cccc2C1=O	-0.9	-2	4	-1.2	i
C[C@@H]1CN([C@@H](C)CO)C(=O)Cc2cc(NC(=O)CCCCCC(=O)Nc3ccccc3N)ccc2O[C@H]1CN(C)Cc1ccc(C(F)(F)F)cc1	-0.9	-4	-8	14	i
CO[C@@H]1CN(C)C(=O)c2cc(NC(=O)Nc3ccccc3F)ccc2OC[C@@H](C)N(C(=O)c2cnccn2)C[C@H]1C	1.0	-4	-2	1.3	i
C[C@H](CO)N1C[C@H](C)[C@@H](CN(C)C(=O)Nc2ccc(F)cc2)Oc2c(NS(=O)(=O)c3cccs3)cccc2C1=O	-1.0	-3	6	-0.3	i
COc1ccc(CN(C)C[C@@H]2OCCCC[C@H](C)Oc3ccc(NC(=O)Nc4ccc(F)cc4)cc3C(=O)N([C@@H](C)CO)C[C@H]2C)cc1	15	-16	-40	38	i
CCCC#Cc1cnc2c(c1)C(=O)N([C@H](C)CO)C[C@@H](C)[C@H](CN(C)C(=O)Nc1cccc(F)c1)O2	1.5	-3	-19	2.2	i
O=C1NN=C2CCCCCC12 (centres undefined)	-1.7	3	10	0.0	i
CC(C)C#Cc1cnc2c(c1)C(=O)N([C@H](C)CO)C[C@H](C)[C@H](CN(C)C(=O)c1ccccn1)O2	-1.0	1	4	3.1	i

(cont.)
SMILES	AF4-AF9 inh	Ecoli rRNA inh	Ecoli rRNA inh OD600	Ecoli rRNA inh RFP	FGF22 binding
CCCNC(=O)N1[C@H](CO)[C@H](c2ccccc2-c2ccc(OC)cc2)[C@@H]1C#N	-0.9	-1	-28	-1.4	i
COc1ccc(CCN2C(=O)c3ccccc3C2c2nnnn2-c2ccc3c(c2)OCCO3)cc1OC (centres undefined)	-4.8	-7	-5	2.6	i
Nn1c(SCC(=O)NC2CCCCCC2)nnc1-c1ccco1	-3.6	6	5	1.0	i
C[C@@H]1CN([C@H](C)CO)C(=O)c2cc(N(C)C)ccc2O[C@@H](C)CCCCO[C@@H]1CN(C)CC1CCCCC1	20	-19	-48	25	i
O=C(Nc1ccn(CCCNCc2ccc3[nH]ccc3c2)c(=O)n1)OCc1ccccc1	11	-14	-5	5.5	i
CN(C)CC(=O)Nc1ccc2c(c1)[C@H]1C[C@H](CC(=O)NCc3cc(F)ccc3F)O[C@@H](CO)[C@H]1O2	-2.1	3	5	0.6	i
CC(=O)NC(C)(c1ccccc1)c1nc(-c2cccc(C(F)(F)F)c2)cs1 (centres undefined)	-0.7	-17	-53	21	i
CN1CCN(C(=O)C[C@H]2CC[C@@H]3[C@H](COC[C@@H](O)CN3C(=O)C3CCOCC3)O2)CC1	-10	2	5	1.6	i
Cc1noc(C)c1NC(=O)N(C)C[C@@H]1Oc2ccc(NC(=O)C3CC3)cc2C(=O)N([C@H](C)CO)C[C@@H]1C	-3.6	2	3	-0.5	i
CO[C@H]1CC[C@H]2CCN(C)C(=O)[C@H](C)N(C)C(=O)c3cc(C#N)ccc3OC[C@H]1O2	2.2	1	7	-2.7	i
C[C@H]1CN([C@@H](C)CO)C(=O)c2cccc(NC(=O)NC3CCCCC3)c2O[C@@H]1CN(C)Cc1ccc(Cl)c(Cl)c1	5.3	2	-1	2.1	i
C[C@@H]1CCCCO[C@H](CN(C)C(=O)Nc2ccc3c(c2)OCO3)[C@H](C)CN([C@@H](C)CO)C(=O)c2cc(NC(=O)CCC(F)(F)F)ccc2O1	3.7	-3	-4	-1.4	i
CCCCc1cc(=O)oc2cc(OC(C)C(=O)NCCN3CCOCC3)ccc12 (centres undefined)	-2.9	7	-1	3.7	i
